Assay outcomes (PubChem)
Ba CapD inh – blocks the Bacillus anthracis CapD enzyme; purified CapD enzyme, fluorescence intensity read-out; active compounds read low; some hits fall short of the stated cut; z-score (concentration not given with the values); 140,000 tested, 0.23% active;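 active means z-score under -4 in either of two replicates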;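 further: stock transfer was 100 nL into about 40 µL; score is relative to mean and spread of the plate; one replicate is shown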
AID504770 – growth inhibitors of E. coli YBA685 in a screen for V. cholerae RctB (chromosome II replication) inhibitors. E. coli YBA685 rctB-dependent plasmid, OD600 growth, 3 h; active compounds read low. z-score (concentration not given with the values). 130,000 tested, 0.27% active;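 active means z-score under -2 on both plates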;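 further: wells of about 30 µL received 100 nL stock; score is relative to mean and SD of the test wells; the first replicate is given; strong numbers were not always called active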
An asterisk follows results filed as active; . = no result given. Some of the compounds tested; the hit share may differ from the screen's.

Value order: Ba CapD inh	AID504770
Cc1cc(C(F)(F)F)nc(SCC(=O)NCc2cccc(C(F)(F)F)c2)n1
 : 0.105	0.45
CCOc1nc2cnccc2n(Cc2ccccc2C#N)c1=O
 : 1.71	-0.4
COc1ccc(-c2nnc(SCC(=O)N3CC(=O)Nc4ccccc43)o2)cc1OC
 : .	-0.35
CCn1cc(C(=O)NCc2cccnc2)c(=O)c2cc(S(=O)(=O)N3CCCC3)ccc21
 : -0.11	0.35
O=C(NC1CCN2CCCc3cccc1c32)c1cc(Cl)nc(Cl)c1 (centres undefined)
 : 1.48	.
CCOC(=O)C1CCN(C(=O)c2cc3n(n2)C(C(F)(F)F)CC(c2ccc(OC)c(OC)c2)N3)CC1 (centres undefined)
 : 0.34	.
CC(C)=NNC(=O)c1ccccc1
 : -0.07	-0.8
COc1cccc(C(=O)N2N=C(C(F)(F)F)CC2(O)c2cccc(OC)c2)c1 (centres undefined)
 : -0.21	.
CCS(=O)(=O)N1CCN(c2nc(C)nc3sc4c(c23)CCC(C)C4)CC1 (centres undefined)
 : .	-0.15
CCN(/C=C1\SC(=S)N(c2ccc(OC)cc2)C1=O)CC
 : -1.4	-0.45
CCCCOc1ccc(C2C(N3C(=O)c4ccc([N+](=O)[O-])cc4C3=O)C(=O)N2c2ccc(Br)cc2)cc1 (centres undefined)
 : -0.385	.
COCc1cc(C)nc2sc(C(N)=O)c(N)c12
 : -0.115	0.15
O=C(CC(CC(=O)c1ccccc1)c1cccc2ccccc12)c1ccccc1
 : 0.275	0.75
O=C(CC(=O)c1ccccc1)Nc1ccccc1
 : .	-0.8
Oc1ccc(Cn2nc(-c3ccc(O)cc3)c3ccccc32)cc1
 : 5.47	-0.15
CCN(CC)c1ccc(NC(=O)CSc2cccc[n+]2[O-])cc1
 : 0.715	-0.15
CCCCOc1ccc(C2Oc3ccccc3C3CC(c4ccc(Cl)cc4)=NN32)cc1 (centres undefined)
 : -0.125	.
CC1(C)CC(NS(C)(=O)=O)CC(C)(C)N1O
 : 0.2	-1.15
Cc1ccccc1OCC(=O)OC1CCCN(C)C1 (centres undefined)
 : .	-1
O=c1ccn2c(SCc3ccccc3)nnc2[nH]1
 : .	-0.9
O=S(=O)(NC12CC3CC(CC(C3)C1)C2)c1cccc(C(F)(F)F)c1
 : 1.15	-0.1
CC(=O)N/C(=C\c1ccc(Cl)cc1)C(=O)NCc1ccccc1
 : 0.525	-0.05
CCN1CCN(C(=Nc2ccccc2)P(=S)(N(C)C)N2CCN(CC)CC2)CC1 (centres undefined)
 : .	-0.2
Cc1c(Cl)cccc1NC(=O)CCCN1C(=O)CCC1=O
 : -0.24	-0.7
O=C(CN1C(=O)CSC1=O)N1CCCC1
 : 1.03	0.25
COc1ccc(CCn2c(=S)[nH]c3cc(C(=O)NCc4ccc5c(c4)OCO5)ccc3c2=O)cc1OC
 : -0.04	.
CNc1nc2c([nH]1)c(=O)n(C)c(=O)n2C
 : -0.18	-0.1
CC(C)[C@H](NC(=O)c1ccco1)C(=O)N(C)Cc1c(F)cccc1Cl
 : .	-0.7
C=CCN=c1scc(-c2ccco2)n1/N=C/c1ccc(C(=O)OC)cc1
 : .	1.25
COc1cc(NC(=O)c2nn3c(C(F)(F)F)cc(-c4ccco4)nc3c2Cl)cc(OC)c1OC
 : 0.25	.

Arranged by number of heavy atoms (smallest number first): some entries from above.
Value order: Ba CapD inh	AID504770
CC(C)=NNC(=O)c1ccccc1
 : -0.07	-0.8
CNc1nc2c([nH]1)c(=O)n(C)c(=O)n2C
 : -0.18	-0.1
CC1(C)CC(NS(C)(=O)=O)CC(C)(C)N1O
 : 0.2	-1.15
COCc1cc(C)nc2sc(C(N)=O)c(N)c12
 : -0.115	0.15
O=c1ccn2c(SCc3ccccc3)nnc2[nH]1
 : .	-0.9
Cc1ccccc1OCC(=O)OC1CCCN(C)C1 (centres undefined)
 : .	-1
CCN(/C=C1\SC(=S)N(c2ccc(OC)cc2)C1=O)CC
 : -1.4	-0.45
CCN(CC)c1ccc(NC(=O)CSc2cccc[n+]2[O-])cc1
 : 0.715	-0.15
O=S(=O)(NC12CC3CC(CC(C3)C1)C2)c1cccc(C(F)(F)F)c1
 : 1.15	-0.1
CC(C)[C@H](NC(=O)c1ccco1)C(=O)N(C)Cc1c(F)cccc1Cl
 : .	-0.7
CCS(=O)(=O)N1CCN(c2nc(C)nc3sc4c(c23)CCC(C)C4)CC1 (centres undefined)
 : .	-0.15
COc1cccc(C(=O)N2N=C(C(F)(F)F)CC2(O)c2cccc(OC)c2)c1 (centres undefined)
 : -0.21	.
O=C(CC(CC(=O)c1ccccc1)c1cccc2ccccc12)c1ccccc1
 : 0.275	0.75
CCCCOc1ccc(C2Oc3ccccc3C3CC(c4ccc(Cl)cc4)=NN32)cc1 (centres undefined)
 : -0.125	.
COc1cc(NC(=O)c2nn3c(C(F)(F)F)cc(-c4ccco4)nc3c2Cl)cc(OC)c1OC
 : 0.25	.
CCCCOc1ccc(C2C(N3C(=O)c4ccc([N+](=O)[O-])cc4C3=O)C(=O)N2c2ccc(Br)cc2)cc1 (centres undefined)
 : -0.385	.

Quoted at random: 4 records from the list
Value order: Ba CapD inh	AID504770
Cc1ccccc1OCC(=O)OC1CCCN(C)C1 (centres undefined)
 : .	-1
CNc1nc2c([nH]1)c(=O)n(C)c(=O)n2C
 : -0.18	-0.1
CC(C)[C@H](NC(=O)c1ccco1)C(=O)N(C)Cc1c(F)cccc1Cl
 : .	-0.7
CCN(CC)c1ccc(NC(=O)CSc2cccc[n+]2[O-])cc1
 : 0.715	-0.15

Additional entries follow.
Value order: Ba CapD inh	AID504770
CON(C)C(=O)CCC(=O)N1CCc2cc(F)ccc21
 : 0.11	.
CCS(=O)(=O)N1CCC(C(=O)N2CCc3ccccc3C2)CC1
 : 0.105	1.3
CC1=C(C(=O)Nc2cccc(C(F)(F)F)c2)C(c2cccnc2)C2=C(CC(c3ccccc3)CC2=O)N1 (centres undefined)
 : 14.1	.
CCOc1ccc(C(=O)OCC(=O)N2CCCCC2)cc1OCC
 : .	0.6
CON1C(=O)c2ccccc2C1=O
 : 0.29	0.35
CC(=O)Oc1ccccc1C(=O)NCc1ccc(F)cc1
 : 1.46	0.2
CCOP(=O)(OCC)C(NC(=O)c1ccc(Cl)cc1)=C(Cl)Cl
 : 0.33	.
Cc1ccc(S(=O)(=O)NN(C)C)cc1
 : -0.11	-0.95
CC(NC(=O)c1ccccc1)c1ccc(F)cc1 (centres undefined)
 : .	-0.55
O=C(NCc1ccco1)C1CCN(c2nccc(C(F)(F)F)n2)CC1
 : 2.04	-0.55
Nc1c(S(=O)(=O)c2ccccc2)c2nc3ccccc3nc2n1C1CC1
 : .	0.25
Cc1ccc(/C=C/C(=O)N(Cc2nc3ccccc3c(=O)[nH]2)CC2CCCO2)o1 (centres undefined)
 : .	-0.05
O=C(/C=C1\NC2(CCCC2)Cc2ccccc21)N1CCOCC1
 : .	-0.45
CCOC(=O)c1[nH]c2c([N+](=O)[O-])cc(C)cc2c1CCN1C(=O)c2ccccc2C1=O
 : -0.1	.
C(=NCc1ccccc1)c1cn(-c2ccccc2)nc1-c1cccs1
 : 7.73	-0.6
O=C(Nc1nnc(-c2ccccc2)o1)c1cccc(C(F)(F)F)c1
 : -0.34	0.1
O=C(O)CCCN=C1NC(=O)CC(=O)N1
 : -0.22	2.35
O=C(NNC(=O)c1ccccc1NC(=O)c1cccs1)c1ccc(-n2nc(-c3ccccc3)cc2-c2ccccc2)cc1
 : -0.385	.
N#CC1(NCCNC2(C#N)CCCCC2)CCCCC1
 : .	-1.6
COc1cccc(NS(=O)(=O)c2cc(C(=O)N3CCCCC3)ccc2NCCc2ccc(OC)c(OC)c2)c1
 : 2.35	.
COc1ccc(C=Nc2nonc2N)cc1
 : -1.57	-0.1
CNC(=S)N(CCN1CCOCC1)Cc1cc2cc(C)c(Cl)cc2[nH]c1=O
 : .	-0.2
Cn1c2c(c3ccccc31)/C(=N/OC(=O)c1ccc(Cl)cc1Cl)CCC2
 : 0.445	.
COc1ccccc1NCC(=O)N/N=C/C=C1/N(C)c2ccccc2C1(C)C
 : .	0.1
C/C(=C\C(=O)C(F)(F)F)NCC1CCCO1 (centres undefined)
 : .	-0.85
COc1ccc(C(=O)C[N+]2=C(C)c3ccc(C)n3CC2)cc1
 : .	-1
Cc1cc(SCC(N)=O)nc2ccccc12
 : .	-0.9
CS/C(Nc1cccnc1)=C(/C#N)c1ccccn1
 : -2.21	0.2
O=C(NC1CCN2CCCc3cccc1c32)c1c(F)cccc1F (centres undefined)
 : 0.075	.
C[N+]1(CC(O)COc2ccccc2F)CCOCC1 (centres undefined)
 : -0.715	0.45
CC1=C(C(=O)Nc2cccc(C(F)(F)F)c2)C(c2ccc3c(c2)OCO3)NC(=O)N1 (centres undefined)
 : .	-2.25
CCOc1cc(N2CCOCC2)c(OCC)cc1NC(=O)c1cc(-c2ccco2)nc2ccccc12
 : .	-0.15
N/C(CCn1nnc2ccccc21)=N\O
 : 0.4	-0.65
CN(C)S(=O)(=O)c1ccc2c(c1)CCN2C(=O)c1ccc(C(C)(C)C)cc1
 : 0.035	.
O=C(Cc1ccccc1)Nc1ccc(N2CCCC2=O)cc1
 : 0.285	0.45
Nc1ccc(N2CCOCC2)cc1
 : 0.02	-0.7
Cc1cc(NC(=O)c2cc(C3CC3)on2)no1
 : -1	-0.8
Cc1ccc(C(=O)Nc2ccccc2N2CCCCC2)c(C)c1
 : 0.61	1.1
O=C(COc1ccc2ccc(=O)oc2c1)N1CCc2ccccc21
 : .	-0.4
CCOC(=O)C1CCN(c2nc3cc(Br)ccc3s2)CC1
 : 0.22	1.5
CCOC(=O)c1c(S(=O)(=O)NCc2ccccc2)c(-c2ccccc2)n(-c2ccccc2)c1C
 : 9.79	0.05
CC(=O)N1Cc2[nH]c3ccccc3c2CC1C(=O)O (centres undefined)
 : 0.135	.
N#Cc1ccc(CCC(=O)c2cccs2)cc1
 : .	3.25
O=C1ON=C(c2ccccc2)/C1=C/c1ccc(Cl)cc1
 : 0.03	.
Cn1cnnc1Sc1ccc(Cl)cc1NC(=O)c1ccc(C#N)cc1
 : .	-0.65
S=C(NCc1ccco1)NC1OCCOC1NC(=S)NCc1ccco1 (centres undefined)
 : .	1.4
CC(=O)Nc1cc(C(=O)N2CCN(c3ccccc3)CC2)ccc1Sc1ccc(C)cc1
 : 0.05	0.8
O=C(Nc1ccc2c(c1)OCCO2)c1cccnc1Sc1ccccc1
 : -0.39	-0.55
Nc1ccccc1C(O)(Cc1ccccc1)c1ccccc1 (centres undefined)
 : -0.5	-0.15
c1cncc(-c2nc3c4ccccc4nc(NCCCN4CCCCCC4)n3n2)c1
 : -0.26	1.15
N#Cc1ccccc1NC(=O)c1ccc(N2C(=O)CCC2=O)cc1
 : .	0.6
CC(=O)CSc1nc2ccc(Nc3nc(N4CCOCC4)nc(N4CCOCC4)n3)cc2s1
 : -0.42	.
COc1cc(NC(=O)c2cc3nc(-c4ccco4)cc(C(F)(F)F)n3n2)c(OC)cc1Cl
 : -0.16	.
COCCCNC1CCOc2ccccc21 (centres undefined)
 : .	-3.7
COc1ccc(CNC(=O)c2ccc3nc(N4CCOCC4)sc3c2)cc1
 : 0.21	-1.05
CC(O)c1ccc(N(C)C)c2c(N(C)C)cccc12 (centres undefined)
 : 7.99	0.3
O=C(Nc1ccc(F)cc1)C1c2ccccc2Oc2ccccc21
 : -0.13	0.5
O=C(COC(=O)c1ccc(F)cc1Cl)c1ccc(Br)cc1
 : -0.71	-0.55
CN(C)c1ccc(NC(=O)COC(=O)C2=NNC(=O)CC2)cc1
 : .	0.65
COc1cccc(N2CCN(S(=O)(=O)c3ccc(CN4C(=O)c5cccnc5C4=O)s3)CC2)c1
 : -0.035	-0.05

Continued:
Value order: Ba CapD inh	AID504770
CCCCNC(=O)C1CCCN1S(=O)(=O)c1cccc2nsnc12 (centres undefined)
 : -0.685	0.1
CSc1c(C#N)c(-c2ccccc2)nn1CC(=O)NN
 : 0.07	0.05
CC(C)(C)c1cc(C(=O)NNS(=O)(=O)c2ccccc2)n[nH]1
 : 0.33	.
O=C(NCCc1ccncc1)Nc1ccc(Cl)cc1
 : 0.205	-0.8
Cc1cc(CSc2nnc(NC3CC3)s2)no1
 : .	-0.7
CC(C)Cn1cc(NC(=O)N(C)Cc2ccco2)c2ccccc2c1=O
 : 12	-0.35
O/N=C/C1=C(Cl)c2ccccc2CC1
 : -1.15	-0.6
COc1cccc(-c2nc(-c3ccccc3)c(-c3cc([N+](=O)[O-])ccc3C)[nH]2)c1OC
 : -0.825	.
O=C(c1cc2cnccc2nc1C(F)(F)F)N1CCCC1
 : -0.65	.
Cn1nc(-c2ccc(C=N/C(C#N)=C(\N)C#N)s2)cc1C(F)(F)F
 : 0.305	0.35
CC(=O)C1=NN(c2ccc(Cl)cc2)C(c2cccc(OCc3c(Cl)cccc3Cl)c2)N1c1ccc(C)cc1 (centres undefined)
 : -0.275	.
Fc1ccc(N=C(CN2CCCCC2)N2CCCCC2)cc1
 : .	-0.35
COC(=O)c1csc2c(C(F)(F)F)cc(N3CCN(C(=O)c4ccco4)CC3)nc12
 : 1.99	.
CCOC(=O)N1CCC(N/C=C(\C#N)S(=O)(=O)c2ccc(Cl)cc2)CC1
 : 0.46	0.25
O=C(CN1C(=O)/C(=C/c2ccccc2F)Sc2ccccc21)NCc1ccc2c(c1)OCO2
 : -0.84	1.85
